# FGF22 binding: FGF22 (human) thermal shift binding; Q9HCT0; actives 1.5% (n = 340,000); recombinant FGF22 thermal shift, SYPRO orange fluorescence; percent of sucrose octasulfate shift, DMSO zero; calls only at 9.99 µM;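 active = melting point raised past a set limit in the mean and every replicate; three in four hits are not shown here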
# Target sequence (Q9HCT0 whole entry, looked up): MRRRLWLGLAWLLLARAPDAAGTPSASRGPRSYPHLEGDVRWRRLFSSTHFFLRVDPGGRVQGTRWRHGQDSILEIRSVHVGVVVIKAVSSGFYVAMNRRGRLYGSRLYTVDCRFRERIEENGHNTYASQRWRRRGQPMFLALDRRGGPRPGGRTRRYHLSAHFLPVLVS
# AF4-AF9 inh: MLL-AF4/AF9 protein interaction inhibition; inhibition, % at 10 µM; P42568; AlphaScreen, biotin-AF4 peptide binding to FLAG-AF9; actives 0.47% (n = 350,000);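 active = every replicate reaching a set inhibition limit, whatever the replicate mean, cut at about 25% in these data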;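 also: 0% = plate neutral control median and 100% = total signal loss; the record names both 10 and 1 µM as test concentration; the first replicate is given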
# Target sequence (P42568 whole entry, looked up): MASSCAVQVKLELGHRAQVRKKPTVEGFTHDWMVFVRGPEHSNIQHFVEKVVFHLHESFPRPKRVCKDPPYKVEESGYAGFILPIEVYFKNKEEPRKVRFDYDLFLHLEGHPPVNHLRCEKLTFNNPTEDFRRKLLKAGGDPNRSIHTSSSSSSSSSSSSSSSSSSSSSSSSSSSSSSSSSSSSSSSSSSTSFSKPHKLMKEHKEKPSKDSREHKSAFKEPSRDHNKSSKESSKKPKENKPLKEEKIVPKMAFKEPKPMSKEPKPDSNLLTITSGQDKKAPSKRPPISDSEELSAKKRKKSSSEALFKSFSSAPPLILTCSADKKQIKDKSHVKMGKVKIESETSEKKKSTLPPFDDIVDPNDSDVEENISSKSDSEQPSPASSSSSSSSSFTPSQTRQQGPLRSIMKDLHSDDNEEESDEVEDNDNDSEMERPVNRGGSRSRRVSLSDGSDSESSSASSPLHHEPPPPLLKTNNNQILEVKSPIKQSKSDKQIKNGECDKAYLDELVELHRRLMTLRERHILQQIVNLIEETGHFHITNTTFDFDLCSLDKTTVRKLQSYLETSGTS
# rRNA inh HTS: inhibitors of bacterial rRNA selective over humanized ribosomes; E. coli WT GFP vs humanized-ribosome RFP mutants, fluorescence, 24 h; hits give low values; DMSO median 0, no signal -100; GFP signal change (wild-type ribosome), % (test concentration not listed); actives 1.6% (n = 350,000); AID 720706;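 active = significant combined selectivity score with lowered wild-type GFP, culture density cut under 30%, mutant RFP and density less affected; inactive = any of these conditions unmet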; also: one replicate is shown; some compounds called inactive have numbers as strong as hits
# rRNA inh HTS OD600: recorded beside rRNA inh HTS, whose call it bears; OD600 change, %; measured here: OD600 growth;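 optical density of the mix in the first replicate; 0 = DMSO median and -100 = no signal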
# rRNA inh HTS RFP: further read-out of rRNA inh HTS, marked with its call; RFP signal change, %; measured here: RFP humanized mutant strains;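 first replicate; 0 = DMSO median and -100 = no signal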
# An asterisk follows results filed as active; i = inactive; / = no result given; + = active, no number. This is a subset; the hit share may differ from the screen's.
molecule	FGF22 binding	AF4-AF9 inh	rRNA inh HTS	rRNA inh HTS OD600	rRNA inh HTS RFP
COCCNC(=O)C[C@H]1C[C@H]2c3cc(NC(=O)CN(C)C)ccc3O[C@H]2[C@@H](CO)O1	i	-0.2	3.6	5.3	1.4
CCCC#Cc1cnc2c(c1)C(=O)N([C@@H](C)CO)C[C@@H](C)[C@H](CN(C)S(C)(=O)=O)O2	i	1.2	3.9	10.9	-1.9
Cc1ccc(-c2ccccc2[C@@H]2[C@H](C#N)N(C(=O)Cc3cccnc3)[C@H]2CO)cc1	i	0.1	-6.6	-7.1	-4.3
Cc1ccc(-c2cnc3c(c2)C(=O)N([C@@H](C)CO)C[C@@H](C)[C@@H](CN(C)C(=O)c2cccc(F)c2)O3)cc1	i	1.0	0.4	-24.9	4.3
CCC(=O)Nc1ccc2c(c1)C(=O)N(C)[C@H]1CC[C@H](CC(=O)N[C@@H](C)c3ccccc3)O[C@H]1CO2	i	-3.5	0.6	9.5	3.0
N#Cc1cccc(C2CC(OCCF)=CC(=O)O2)c1 (centres undefined)	i	-1.3	10.1	16.2	2.8
CC(C)NC(=O)N(C)C[C@@H]1OCCCC[C@@H](C)Oc2ccc(NC(=O)c3ccccc3)cc2C(=O)N([C@@H](C)CO)C[C@H]1C	i	-1.3	2.0	1.0	0.4
CC(=O)c1cccc(NC(=O)c2ccc(-n3cncn3)c3ccoc23)c1	i	-19.9	1.5	-25.8	-0.8

# Reformatted: results already given.
# Order of values – FGF22 binding	AF4-AF9 inh	rRNA inh HTS	rRNA inh HTS OD600	rRNA inh HTS RFP
- COCCNC(=O)C[C@H]1C[C@H]2c3cc(NC(=O)CN(C)C)ccc3O[C@H]2[C@@H](CO)O1
 : i	-0.2	3.6	5.3	1.4
- CCCC#Cc1cnc2c(c1)C(=O)N([C@@H](C)CO)C[C@@H](C)[C@H](CN(C)S(C)(=O)=O)O2
 : i	1.2	3.9	10.9	-1.9

# Further entries.
molecule	FGF22 binding	AF4-AF9 inh	rRNA inh HTS	rRNA inh HTS OD600	rRNA inh HTS RFP
CO[C@@H]1CN(C)C(=O)c2cc(NC(C)=O)ccc2OC[C@H](C)N(C(=O)Cc2ccccn2)C[C@@H]1C	i	10.1	0.9	-0.9	-0.4
COC(=O)c1ccc2nc(-c3ccc(OC)c(OC)c3)c(Cc3ccc(C)cc3)n2c1	i	-0.7	-15.2*	3.0*	3.0*
C[C@@H]1[C@H](c2ccccc2)Oc2ccc(Cl)cc2S(=O)(=O)N1CC1CCCN1C(=O)OC(C)(C)C (some centres undefined)	i	-3.5	4.9	24.0	-4.5
Cc1ccc(-c2nc3c(Cl)cc(C(F)(F)F)cn3c2Cc2cccc(F)c2)cc1	i	-1.0	-0.5	-3.9	-1.3
COc1ccc(NC(=O)N(C)C[C@@H]2OCCCC[C@H](C)Oc3ccc(NC(=O)Nc4ccc(C(F)(F)F)cc4)cc3C(=O)N([C@@H](C)CO)C[C@@H]2C)cc1	i	-3.5	-2.8	-3.9	-2.7
CO[C@H]1CN(C)C(=O)c2ccc(NS(=O)(=O)c3ccc(Cl)cc3)cc2OC[C@H](C)N(C)C[C@H]1C	i	-0.8	-1.5	-0.8	-0.6
O=C(C[C@H]1C=C[C@H](NC(=O)Nc2ccccc2F)[C@@H](CO)O1)NCc1ccc(F)cc1	i	0.9	-2.2	4.3	3.0
O=C(C[C@@H]1CC[C@@H]2[C@H](COC[C@@H](O)CN2C(=O)Nc2cc(Cl)cc(Cl)c2)O1)N1CCCCC1	i	2.8	-40.5	-64.5	14.6
C/C=C/c1ccc([C@H]2[C@@H](CNS(C)(=O)=O)N(CC3CC3)[C@H]2CO)cc1	i	0.9	1.2	0.4	-0.5
C[C@H]1CN([C@@H](C)CO)C(=O)c2cccc(NC(=O)C3CCCCC3)c2O[C@H]1CN(C)CC1CC1	i	-2.6	6.2	7.1	1.9
Cc1ccc(-c2ccc([C@@H]3[C@H]4CN(C(=O)c5ccncc5)CCCCN4[C@H]3CO)cc2)cc1	i	-2.8	2.3	-10.4	5.3
C[C@H](CO)N1C[C@H](C)[C@H](CN(C)Cc2ccc3c(c2)OCO3)Oc2c(NC(=O)C3CC3)cccc2C1=O	i	-2.9	1.6	6.5	-0.7
COc1ccc(S(=O)(=O)N(C)C[C@H]2Oc3c(NS(=O)(=O)c4ccccc4)cccc3C(=O)N([C@@H](C)CO)C[C@H]2C)cc1	i	0.0	3.1	-1.9	-1.6
C[C@H]1CN([C@@H](C)CO)C(=O)Cc2cc(NC(=O)Cc3cn(C)c4ccccc34)ccc2O[C@@H]1CN(C)Cc1ccccc1	+	5.1	-3.3	6.2	11.3
C[C@H](NC(=O)C[C@@H]1CC[C@H](NC(=O)C2CCOCC2)[C@H](CO)O1)c1ccccc1	i	-1.3	-0.3	2.0	-1.3
COc1ccc(CN2C(=O)C(CC(=O)NCc3cccs3)CC(C(=O)N(C(C)C)C(C)C)=C2C)cc1 (centres undefined)	i	-1.8	-6.9	-10.4	1.9
C[C@H](CO)N1C[C@H](C)[C@H](CN(C)Cc2ccc(C(F)(F)F)cc2)Oc2c(NC(=O)C3CCOCC3)cccc2C1=O	i	-0.9	2.1	1.3	0.4
COc1ccc(S(=O)(=O)Nc2ccc3c(c2)C(=O)N([C@H](C)CO)C[C@H](C)[C@@H](CN(C)C(=O)CCC(F)(F)F)OCCCC[C@@H](C)O3)cc1	i	-4.2	0.4	0.3	-4.5
C[C@@H]1CN([C@H](C)CO)C(=O)c2cc(NC(=O)Nc3ccc(C(F)(F)F)cc3)ccc2O[C@@H]1CN(C)Cc1ccc(-c2ccccc2)cc1	i	0.8	5.9	4.1	-4.0
COC(=O)C1=C(C)N(C)C(=NCc2ccccc2)NC1c1ccc(F)cc1 (centres undefined)	/	-1.9	9.8	13.2	3.1
CCN1CCC(C(=O)NC(c2ccc(F)cc2)c2ncccc2C)CC1 (centres undefined)	i	1.1	10.9	15.4	5.7
CC(C)C(=O)N1CCCC1(C)C(=O)Nc1cccc(Oc2ccccc2)c1 (centres undefined)	i	-3.1	-1.5	3.5	1.7
CC(=O)C1(O)CCC2C3CCC4CC(=O)CCC4(C)C3C(=O)CC21C (centres undefined)	i	-4.3	6.6	11.8	-1.1
C[C@@H]1CN([C@H](C)CO)C(=O)c2cc(NC(=O)Nc3ccc4c(c3)OCO4)ccc2O[C@@H]1CN(C)Cc1ccc(C(=O)Nc2ccccc2N)cc1	i	2.4	-2.8	3.2	2.1
CC1(c2ccc(Cl)cc2)NC(=O)N(CC(=O)N2CCN(C(=O)c3cccs3)CC2)C1=O (centres undefined)	i	-0.1	1.1	2.8	-1.5
CN1C(=O)c2cc(NC(=O)C3CC3)ccc2OC[C@H]2O[C@@H](CC(=O)NCc3ccccc3F)CC[C@@H]21	i	1.7	-0.4	9.3	-4.6
Cc1cccc(CN2CCN(C3CN(Cc4cn(Cc5cccc(Cl)c5)nn4)S(=O)(=O)C3)CC2)c1 (centres undefined)	i	3.0	-35.8*	-21.4*	-0.2*
C[C@@H]1CN([C@@H](C)CO)C(=O)c2c(c3ccccc3n2C)-c2ccccc2CO[C@H]1CN(C)S(=O)(=O)CC(F)(F)F	i	2.8	-2.1	1.0	0.6
O=C(Nc1cccc(Cl)c1)N1C[C@H]2[C@@H](c3ccccc31)[C@@H](CO)N2CC1CCOCC1	i	-6.4	-20.2	-33.9	3.2
C[C@@H]1CN([C@H](C)CO)C(=O)c2cc(NC(=O)NC3CCCCC3)ccc2O[C@@H](C)CCCCO[C@H]1CN(C)C(=O)CCC(F)(F)F	i	0.1	-2.3	-1.4	2.5
CCNC(=O)C[C@@H]1CC[C@@H]2[C@H](COc3ccc(NC(=O)Nc4cccc(F)c4)cc3C(=O)N2C)O1	i	2.1	-4.5	-2.4	-2.0
CCOC(=O)C1CCCN(C(=O)c2ccc(-c3ccccc3)cc2)CC1 (centres undefined)	i	-2.9	1.9	-32.3	-3.5
CCOC(=O)c1ccccc1NC(=O)C1CC(=O)N(C2CCCC2)C1 (centres undefined)	i	-2.4	3.4	7.0	-2.4
CCCNC(=O)c1cc2c(c(-c3cccc(-c4ccc(F)cc4)c3)n1)[C@H](CCO)N(S(=O)C(C)(C)C)C2 (some centres undefined)	i	2.7	-3.6	-13.9	59.4
COc1cccc(C(=O)Nc2cc(C)on2)c1	i	-1.3	0.0	4.7	-2.2
COc1ccc(NC(=O)N[C@H]2CC[C@H](CCNC(=O)Cc3ccncc3)O[C@@H]2CO)cc1	i	2.9	5.6	8.4	0.8
CCNC(=O)C[C@@H]1CC[C@@H]2[C@H](COC[C@@H](O)CN2C(=O)c2cccnc2)O1	i	-3.0	-1.6	-13.6	16.9
C[C@@H]1CCCCO[C@@H](CN(C)S(=O)(=O)c2ccccc2)[C@H](C)CN([C@H](C)CO)C(=O)c2cc(NS(=O)(=O)c3cn(C)cn3)ccc2O1	i	0.1	0.8	5.3	0.0
CCCC(=O)Nc1ccc2c(c1)OC[C@@H](C)N(C(=O)CC)C[C@H](C)[C@H](OC)CN(C)C2=O	i	-4.1	0.2	2.7	2.0
CCCNC(=O)C1(C)CCCN(Cc2ccc(-c3ccccc3)o2)C1 (centres undefined)	i	4.1	-23.9	-45.8	-13.6

# The closing six entries of the section above open the next one:
molecule	FGF22 binding	AF4-AF9 inh	rRNA inh HTS	rRNA inh HTS OD600	rRNA inh HTS RFP
COc1cccc(C(=O)Nc2cc(C)on2)c1	i	-1.3	0.0	4.7	-2.2
COc1ccc(NC(=O)N[C@H]2CC[C@H](CCNC(=O)Cc3ccncc3)O[C@@H]2CO)cc1	i	2.9	5.6	8.4	0.8
CCNC(=O)C[C@@H]1CC[C@@H]2[C@H](COC[C@@H](O)CN2C(=O)c2cccnc2)O1	i	-3.0	-1.6	-13.6	16.9
C[C@@H]1CCCCO[C@@H](CN(C)S(=O)(=O)c2ccccc2)[C@H](C)CN([C@H](C)CO)C(=O)c2cc(NS(=O)(=O)c3cn(C)cn3)ccc2O1	i	0.1	0.8	5.3	0.0
CCCC(=O)Nc1ccc2c(c1)OC[C@@H](C)N(C(=O)CC)C[C@H](C)[C@H](OC)CN(C)C2=O	i	-4.1	0.2	2.7	2.0
CCCNC(=O)C1(C)CCCN(Cc2ccc(-c3ccccc3)o2)C1 (centres undefined)	i	4.1	-23.9	-45.8	-13.6
CO[C@H]1CN(C)C(=O)c2ccc(NC(=O)c3cnccn3)cc2OC[C@@H](C)N(C(=O)C2CC2)C[C@H]1C	i	-0.8	-0.1	3.4	-0.6
O=C(C[C@H]1C=C[C@H](NS(=O)(=O)c2ccccc2F)[C@@H](CO)O1)NCCCN1CCOCC1	i	-0.9	0.7	0.4	-2.2
CN1C(=O)c2cc(NC(=O)c3ccc4c(c3)OCO4)ccc2OC[C@@H]2O[C@@H](CC(=O)O)CC[C@@H]21	i	-10.2	0.9	5.4	-1.8
O=C(NCCCN1CCCC1)c1ccc2c(c1)N(Cc1cccc(Cl)c1)C(=O)c1ccccc1S2(=O)=O	i	7.1	1.5	-1.8	3.5
Cc1noc(C)c1S(=O)(=O)Nc1ccc2c(c1)C(=O)N([C@@H](C)CO)C[C@H](C)[C@H](CN(C)Cc1ccccc1)OCCCC[C@H](C)O2	i	2.8	-0.9	-2.1	-1.5
CCCCCNC(=O)C(c1ccc(OC)cc1)n1c(=O)c(-c2ccccc2)nc2ccccc21 (centres undefined)	i	6.9	5.9	15.6	-1.1
O=C(C[C@H]1C[C@H]2c3cc(NC(=O)NC4CCCC4)ccc3O[C@H]2[C@@H](CO)O1)NCC(F)(F)F	i	-2.4	2.8	-7.4	-2.0
Cc1ccc(S(=O)(=O)N(C)C[C@@H]2Oc3ccc(NC(=O)CCC(F)(F)F)cc3CC(=O)N([C@@H](C)CO)C[C@H]2C)cc1	i	2.4	-4.3	-9.2	2.1
COCCNC(=O)c1cc2c(c(-c3cccc(-c4ccc(C#N)cc4)c3)n1)[C@@H](CCO)N(C(=O)CC1CC1)C2	i	0.1	-3.1	-0.8	-1.2
CC(C)NC(=O)Nc1ccc2c(c1)C(=O)N([C@@H](C)CO)C[C@H](C)[C@@H](CN(C)C(=O)Nc1ccc(C(F)(F)F)cc1)O2	i	-4.6	-1.2	0.5	-1.4
C[C@H]1CN([C@@H](C)CO)C(=O)c2cc(NC(=O)Cc3cn(C)c4ccccc34)ccc2O[C@@H]1CN(C)C(=O)NC1CCCCC1	i	2.1	5.6	7.5	1.6
C[C@H](CO)N1C[C@H](C)[C@@H](CN(C)C(=O)Nc2cccc3ccccc23)Oc2ccc(NS(=O)(=O)c3cn(C)cn3)cc2C1=O	i	-2.1	4.2	8.2	-0.1
CCN(C[C@H]1N[C@H](CO)[C@H]1c1ccc(-c2cccc(C#N)c2)cc1)C(=O)COC	i	-0.8	0.9	-2.0	-1.6
C[C@@H]1CN([C@H](C)CO)C(=O)c2cccc(NC(=O)NC3CCCCC3)c2O[C@@H]1CN(C)C(=O)Nc1cccc2ccccc12	i	1.1	1.3	-4.6	1.1

# Source: PubChem BioAssay (Broad Institute)
